# Source: PubChem (ICCB-Longwood Screening Facility, Harvard Medical School)
# RVFV N-RNA inh – inhibitors of Rift Valley Fever Virus nucleocapsid-RNA interaction; P21700; RVFV N-RNA binding, fluorescence polarization; active compounds read low; % bound, % (test concentration not listed); 0.1% of 20,000 active; AID 651828;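 active = between 0 and 58% in either replicate with normal brightness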;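 also: 100 nL library stock added to about 12 µL; 100% = protein and probe without compound and 0% = probe alone; numbers are from one replicate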
# Target sequence (P21700 whole entry, looked up): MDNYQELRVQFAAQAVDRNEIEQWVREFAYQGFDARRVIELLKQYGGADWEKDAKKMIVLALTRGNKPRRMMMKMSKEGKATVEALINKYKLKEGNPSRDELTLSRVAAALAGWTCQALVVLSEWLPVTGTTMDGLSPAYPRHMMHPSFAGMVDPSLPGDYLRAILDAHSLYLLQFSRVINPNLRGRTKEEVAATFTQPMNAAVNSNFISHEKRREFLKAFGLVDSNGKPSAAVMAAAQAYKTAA
# * hit, by the source's call; & = joins results of further samples. Not all compounds are listed; count on the stated rates, not on these rows.
SMILES,RVFV N-RNA inh
CNC(=O)Oc1ccc2c(c1)[C@]1(C)CCN(C)C1N2C (some centres undefined),98
C=CCN1C(=O)S/C(=C\c2ccc(OCC(=O)OC)cc2)C1=O,96
CC(C)c1cc(NC2CCCC2)n2c(nc3ccccc32)c1C#N,96
CCCCOC(=O)c1cc(O)c(O)c(O)c1,97
CCCNC(=O)CSc1nccn1Cc1ccco1,95
Cc1cc(C)nc(NOCc2ccccc2)n1,89
O=C(Cc1cccc2ccccc12)NC1CC1,98
CSc1cccc(NC(=O)CCSc2ccccc2)c1,81
COc1ccc2c(C(F)(F)F)cc(SCC(=O)N3CCCC3)nc2c1,108
COc1cc(-c2nn3cc(-c4ccccc4)nc3s2)cc(OC)c1OC,101
O=C(CN1CCOCC1)Nc1ccccc1,95
COC(=O)CN(C)S(=O)(=O)c1c(C)cc(C)cc1C,91
O=c1cc(-c2ccncc2)oc2ccccc12,95
O=C(N1CCOCC1)C(F)(F)C(F)(F)C(F)(F)F,91
Cc1nc2n(c(=O)c1CCN1CCC(c3noc4cc(F)ccc34)CC1)CCCC2O (centres undefined),98
O=C(/C=C/c1ccco1)NCCSc1ncc(-c2ccc(F)cc2)[nH]1,100
C=CCNCCOc1ccc(Cl)cc1C(C)(C)C,92
CC(=O)OCC1=C(C(=O)O)N2C(=O)[C@@H](NC(=O)Cc3cccs3)[C@H]2SC1,88
CC1CCN(C(=O)COc2ccc(-c3ccccc3)cc2)CC1,101
O=C(CN1C(=O)CCSc2ccccc21)Nc1ccccc1,100
CNC(=O)Nc1cn(C)c2ccccc12,105
CN1CCN(NC(=S)Nc2ccccc2)CC1,100
COc1ccc(Cl)cc1C(=O)NCc1ccc(C(=O)O)cc1,90
O=C1c2ccccc2C(=O)N1CCc1nn2c(-c3cccnc3)nnc2s1,98
Cc1c(-c2nn3c(Cc4ccccc4)nnc3s2)nnn1-c1ccccc1,94
O=C(Nc1ccccc1N1CCCCC1)c1ccc(F)cc1,98
O=C(Cc1c(F)cccc1Cl)NCC1CCCO1 (centres undefined),96
O=C(CSC1=NNC(c2ccccn2)S1)c1ccc(Cl)cc1 (centres undefined),97
Clc1ccc(-c2nnc3ccccn23)cc1,91
O=C(CN1C(=O)c2ccccc2C1=O)NCC1COC2(CCCCC2)O1 (centres undefined),96
CCN(CCO)C(=O)NC1CC(=O)N(c2ccc(C)cc2)C1 (centres undefined),96
COc1ccc(-n2ncc3c(N4CCc5ccccc54)ncnc32)cc1,105
CN(C)CCNC(=O)c1ccc(-n2c(=S)[nH]c3ccccc3c2=O)cc1,98
CCOC(=O)N1CCN(c2nc(C)c3c(n2)CC(c2ccco2)CC3=O)CC1 (centres undefined),94
O=C(C1CCCN(S(=O)(=O)c2ccccc2)C1)N1CCN(c2ccc(F)cc2)CC1 (centres undefined),102
CCc1ccc(/C=C2\C(=O)N(Cc3ccco3)C(C)=C2C(=O)OC)cc1,91
CCCCC(=O)Nc1ccccc1CC,84
Cc1ccc2cc(CCNS(C)(=O)=O)c(=O)[nH]c2c1,107
CCOC(=O)c1cc(CC)sc1NC(=O)C=C(C)C,99
Cc1ccccc1S(=O)(=O)CC(SC#N)c1ccccc1 (centres undefined),93
O=C(Nc1ccc2c(c1)OCO2)c1cnn2c(C(F)(F)F)cc(-c3ccco3)nc12,99
O=[N+]([O-])c1ccc(CNc2nc(NCc3cccc(C(F)(F)F)c3)nc3nc[nH]c23)cc1,98&99
Cc1cc(C)nc(N(C#N)C(=S)N(C)C)n1,92
CCC(=O)Nc1ccc(-c2nc3ccccc3o2)cc1,90
CN1C(=O)CC(Nc2cccc3cccc(N)c23)C1=O (centres undefined),99
CN1C(=O)C(=O)/C(=C(/O)c2ccccc2)C1c1ccccc1 (centres undefined),99
Cc1onc(-c2c(F)cccc2Cl)c1C(=O)NC(=S)NCc1cccnc1,108
O=C(Cc1ccc(Cl)cc1)Nc1ccc2[nH]c(=O)[nH]c2c1,92
COc1ccccc1OCC#CCNCC1CCCO1 (centres undefined),101
COc1ccc(/C(C#N)=C/c2cccc(O)c2)cc1OC,86
CCOC(=O)N1CCN(S(=O)(=O)c2ccc(C(=O)Nc3ccc4nc(SC)sc4c3)cc2)CC1,111
CC/C(=N\O)c1ccc(CCCCCC(=O)O)s1,97
CCN1CCCC1CNC(=O)NC1CC(=O)N(c2ccc(C)cc2)C1 (centres undefined),92
CCCN1CCC(N2CCC(C(=O)OCC)CC2)CC1,93
CCN(CC)CCSc1ccc(-c2ccccn2)nn1,92
Sc1sccc1C=NC1CCCCC1,92
COC(=O)c1ccc(CSc2ccc3nnc(-c4ccccn4)n3n2)o1,97
CCOCCC(=O)Nc1cc(C)cc(C)c1,96
CC(C)(c1ccccc1)n1nnc(-c2ccccc2)n1,93
O=C1C[C@@H]2OCC=C3CN4CC[C@]56c7ccccc7N1[C@H]5[C@H]2[C@H]3C[C@H]46,100
# New compounds follow
SMILES,RVFV N-RNA inh
CCSC1=C(C#N)C(c2ccccc2)C(C(=O)Nc2ccccc2)=C(C)N1 (centres undefined),102
N=C1C(c2ccccc2)=C(O)CN1c1ccccc1,90
O=C(/C=C/c1ccccc1)N1CCCCC1,91
CSc1ccc(S(=O)(=O)N2CCCCC2)cc1,97
Cc1cc(O)c(C(c2ccncc2)N2CCCCC2)c(=O)n1Cc1ccco1 (centres undefined),91
Cn1c(=O)cc(N2CCCCC2)c2c(=O)n(-c3ccccc3)c(=O)n(-c3ccccc3)c21,99
O=C(Nc1ccc(-c2nc3ccccc3o2)cc1)C1CCCC1,103
COc1ccc(-c2cc(-c3cccs3)n(-c3nc(C)cc(=O)[nH]3)n2)cc1,109
Cc1cc(NC(=O)CSc2nnc(Cn3c(=O)sc4ccccc43)n2-c2ccccc2)no1,107
c1ccc(-c2noc(CC3CCCCC3)n2)cc1,88
CCc1nnc(NC(=O)CSc2nc3c(c(=O)n2Cc2ccccc2)SC(C)C3)s1 (centres undefined),95
CCc1ccc2oc(C(=O)Nc3ccccc3OC)c(C)c2c1,95
CN(C)C(=S)c1nc2ccccc2s1,90
CS(=O)(=O)OCCCCOS(C)(=O)=O,93
Cc1ccc(CNc2ccc3c(c2)CCC3)o1,101
O=C(CSc1n[nH]c(=O)n1C1Cc2ccccc2C1)c1ccc2c(c1)OCCO2,101
CCCC(=O)NC1CCS(=O)(=O)C1 (centres undefined),93
O=C(Cc1ccccc1)ON=C1C=CC(=NOC(=O)c2ccco2)C=C1,98
NC(=O)c1c(NC(=O)c2ccc3c(c2)OCCO3)sc2c1CCC2,91
Cc1ccc(S(=O)(=O)CC(O)CN2CCCC2=O)cc1 (centres undefined),89
C=CCn1c(CNC(=O)c2ccco2)nnc1SCC(=O)Nc1cccc(Br)c1,85
COC(=O)c1ccc(CSc2c(C)[nH]c3ccccc23)o1,104
CCOC(=O)Cc1nnc2c3nnc(CC(=O)OCC)n3c3nonc3n12,99
COc1ccccc1C1CCN(Cc2cn[nH]c2-c2ccc(F)cc2)CC1,92
CCCCn1c(-c2ccccc2)n[nH]c1=S,91
Brc1ccc(Cn2ccnc2)cc1,98
NC(=O)c1ccc(OCC(O)CN2CC=C(c3ccc(F)cc3)CC2)cc1 (centres undefined),112
COc1cccc(C(=O)NCCS(=O)(=O)N2CC(C)CC(C)C2)c1 (centres undefined),98
Cc1c(C(=O)Nc2ccc(OC(F)F)cc2)oc2ccc(Cl)cc12,90
Cn1cnnc1SCC(=O)N1CCCC1,108
O=C(Nn1c(=S)[nH]c2ccccc2c1=O)c1ccncc1,94
CNc1cncc(C(=O)O)c1,100
CC(=O)N/N=C(/C)c1ccccc1,102
C(/C=C/c1ccco1)=NN1CCN(C2c3ccccc3-c3ccccc32)CC1,90
COCCNC(=O)c1ccc2c(c1)C(=O)N(C)C2=O,96
O=C1CC(c2ccccc2)CC(O)=C1C=NCc1cccnc1 (centres undefined),91
C1=C(c2ccccc2)CC(c2ccccc2)=C1,96
CCc1ccc(Nc2nc(Nc3ccc(OC)c(OC)c3)nc(N3CCOCC3)n2)cc1,96
CC(C)(C)n1nc(C2CC2)cc1NC(=O)c1ccccc1,93
CC(C)(C)c1cc(C(C)(C)C)n(-c2ccc(C(=O)O)cc2)n1,107
Cc1ccc(NC(=O)CN2C(=O)S/C(=C\c3ccc(C)o3)C2=O)cc1,109
O=C(NCC(c1ccco1)S(=O)(=O)c1ccc(Cl)cc1)c1ccc2c(c1)OCO2 (centres undefined),93
O=Nc1c(-c2c(O)[nH]c3cc(Br)ccc23)[nH]c2ccccc12,104&91
O=C(Nc1cnc2ccccc2c1)N1CCOCC1,93
N#Cc1c(N)sc2c1-c1ccccc1CC2,94

# Reformatted bar-delimited: 22 of the compounds above.
molecule | RVFV N-RNA inh
C=CCn1c(CNC(=O)c2ccco2)nnc1SCC(=O)Nc1cccc(Br)c1 | 85
COC(=O)c1ccc(CSc2c(C)[nH]c3ccccc23)o1 | 104
CCOC(=O)Cc1nnc2c3nnc(CC(=O)OCC)n3c3nonc3n12 | 99
COc1ccccc1C1CCN(Cc2cn[nH]c2-c2ccc(F)cc2)CC1 | 92
CCCCn1c(-c2ccccc2)n[nH]c1=S | 91
Brc1ccc(Cn2ccnc2)cc1 | 98
NC(=O)c1ccc(OCC(O)CN2CC=C(c3ccc(F)cc3)CC2)cc1 (centres undefined) | 112
COc1cccc(C(=O)NCCS(=O)(=O)N2CC(C)CC(C)C2)c1 (centres undefined) | 98
Cc1c(C(=O)Nc2ccc(OC(F)F)cc2)oc2ccc(Cl)cc12 | 90
Cn1cnnc1SCC(=O)N1CCCC1 | 108
O=C(Nn1c(=S)[nH]c2ccccc2c1=O)c1ccncc1 | 94
CNc1cncc(C(=O)O)c1 | 100
CC(=O)N/N=C(/C)c1ccccc1 | 102
C(/C=C/c1ccco1)=NN1CCN(C2c3ccccc3-c3ccccc32)CC1 | 90
COCCNC(=O)c1ccc2c(c1)C(=O)N(C)C2=O | 96
O=C1CC(c2ccccc2)CC(O)=C1C=NCc1cccnc1 (centres undefined) | 91
C1=C(c2ccccc2)CC(c2ccccc2)=C1 | 96
CCc1ccc(Nc2nc(Nc3ccc(OC)c(OC)c3)nc(N3CCOCC3)n2)cc1 | 96
CC(C)(C)n1nc(C2CC2)cc1NC(=O)c1ccccc1 | 93
CC(C)(C)c1cc(C(C)(C)C)n(-c2ccc(C(=O)O)cc2)n1 | 107
Cc1ccc(NC(=O)CN2C(=O)S/C(=C\c3ccc(C)o3)C2=O)cc1 | 109
O=C(NCC(c1ccco1)S(=O)(=O)c1ccc(Cl)cc1)c1ccc2c(c1)OCO2 (centres undefined) | 93

# The list continues.
SMILES,RVFV N-RNA inh
COc1ccc(-c2ccc(SC)nn2)cc1OC,92
COc1cccc(OC)c1OCCNCC1CSc2ccccc2O1 (centres undefined),98
O=c1[nH]c(O)c(/C=N/N2CCOCC2)c(=O)[nH]1,93
CN1CCC(N2CCCC(C(N)=O)C2)CC1 (centres undefined),92
Nn1c(SCC(=O)Nc2ccccc2)nncc1=O,92
O=c1[nH]cnc2sc3c(c12)CCCC3,107
CC(C)(C)N1CSC(=S)N(Cc2ccco2)C1,94
COC(=O)N1CCCc2cc(C)ccc21,91
COC(=O)c1cc(C)sc1NC(=S)NCCn1cc(Cl)cn1,100
CC(C)Cc1nc2sc3c(c2c(=O)o1)CCCCC3,87
CO[C@H]1[C@@H]([C@@]2(C)O[C@@H]2CC=C(C)C)[C@]2(CC[C@H]1OC(=O)/C=C/C=C/C=C/C=C/C(=O)O)CO2,94
CNC(=O)CN1CCC(c2nc3ccccc3[nH]2)CC1,98
COc1ccc(N=Nc2c(-c3ccc(OC)cc3)[nH]oc2=O)cc1,75
COc1ccc2c(c1)nc(SCC(=O)C(C)(C)C)n2C,113
CC(=O)Nn1nc2c(n1)C(=NNC(=O)c1ccccc1)c1nn(NC(C)=O)nc1C2=NNC(=O)c1ccccc1,98
COC(=O)COc1ccc(S(=O)(=O)Nc2ccc(OC)cc2)cc1C,96
O=c1[nH]nc(SCc2cccc(Oc3ccccc3)c2)c(=O)[nH]1,100
COc1ccccc1NC(C)=O,92
Cc1cccc(OC(C)C(=O)N2CCCCC2)c1 (centres undefined),99
O=C(c1ccc(Br)cc1)c1cc2ccccc2o1,99
COC(=O)c1ccc(OC(=O)N2CCOCC2)cc1,92
CCCNC(=O)Nc1nc2ccc(OC)cc2s1,92
NC(=O)Cn1nc2c3c(cccc3c1=O)-c1ccccc1-2,97
C=CCOc1cccc(/C=C2/C(=O)NC(=S)N2C(C)=O)c1,94
CC(C)(C)c1ccc(C(=O)n2cc(Br)cn2)cc1,90
CC1Sc2ccccc2NC(=O)C1C (centres undefined),91
COc1ccc(N2CC(NC(=O)N(CCO)Cc3ccccc3)CC2=O)cc1 (centres undefined),95
CCN(Cc1ccncc1)C(=O)C(CO)c1ccccc1 (centres undefined),96&100&92
CCOC(=O)N1CCN(C(=O)c2ccccc2NC(=O)c2cccc(C)c2)CC1,91
CNC(=O)NNc1ccc(-c2csnn2)cc1,107

# Exported field by field: entries from further up.
CCN(Cc1ccncc1)C(=O)C(CO)c1ccccc1 (centres undefined)
  RVFV N-RNA inh: 96&100&92

CCOC(=O)N1CCN(C(=O)c2ccccc2NC(=O)c2cccc(C)c2)CC1
  RVFV N-RNA inh: 91

# More compounds:
SMILES,RVFV N-RNA inh
CN(C)C(=S)SCC(=O)Nc1ccccc1O,97
COc1ccc(-n2cc(-c3ccc(OC)c(OC)c3)[nH]c2=O)cc1,89
COc1ccc(C(C)(C)C)cc1NC(=O)c1ccoc1C,102
O=C(CSc1nnc(CNC(=O)c2ccco2)n1-c1cccc(C(F)(F)F)c1)Nc1ccc(F)cc1,94
Cn1nc(C(=O)N2CCOCC2)c2ccccc2c1=O,96
COc1ccc(C(=O)NCCc2cc3c(OC)ccc(OC)c3[nH]c2=O)cc1,97
Nc1cc(=O)[nH]c(=S)n1-c1ccc(Cl)cc1,101
Cc1cc(NC(=O)c2ccc(Br)o2)nc2c1c(=O)oc1ccccc12,100
CC1=Nn2c(nc3sc(-c4ccccc4)cc3c2=O)SC1,97
CCC(=O)Nc1ccc(C(=O)OCC(=O)C(C)(C)C)cc1,86
N#C/C(=C\Nc1ccccn1)C(=O)c1ccccc1,97
Cc1c(C#N)c2ccccc2n1CCOc1cccc2ccccc12,93
